Hedgehog cleavage – Drosophila hedgehog isoform A inhibitors, primary screen, biochemical, plate reader, single concentration (AID 588832) | 8,000 tested, under 10 active | Biochemical plate reader assay, Hedgehog inhibition; hits give high values | inhibition, % at 30.3 µM; in the data active = inhibition from about 57%;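 note: 0% = neutral control wells and 100% = positive control wells; cholesterol-driven self-cleavage of fly hedgehog protein by fluorescence polarization; read one hour after cholesterol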
An asterisk follows results filed as active.

SMILES	Hedgehog cleavage
NC(=O)c1cccc2c1C(=O)N(C1CCCCC1)C2	7
CCCCN(C(=O)c1cnc2n(c1=O)CCS2)c1ccccc1	-1
CCOCCCNC(=O)Cn1cc2c(n1)CCCCC2	17
COC(=O)C1C2C=CC3(CN(c4cccc(Cl)c4)C(=O)C13)O2 (stereo unspecified)	11
CC1CCC(NC(=O)Cn2cc3c(n2)CCCC3)CC1 (stereo unspecified)	17
O=C(COc1ccc2c3c(c(=O)oc2c1)CCC3)N[C@@H](Cc1ccccc1)C(=O)O	-2
COc1ccc(CNC(=O)CS(=O)Cc2nc(-c3ccccc3C)oc2C)cc1 (stereo unspecified)	0
CCOc1ccc(NC(=O)c2cccc3c2C(=O)N(CC2CCCO2)C3)cc1 (stereo unspecified)	4
CCCCn1c(CNC(=O)CCC)nc2ccccc21	5
COc1cccc(CNC(=O)CCS(=O)(=O)c2cc3c(cc2C)NC(=O)CO3)c1	5
CC[C@H](C)C(=O)O[C@H]1C[C@@H](C)C=C2C=C[C@H](C)[C@H](CC[C@@H]3C[C@@H](O)CC(=O)O3)[C@H]21	9
Cc1ccc(Cn2c(=O)c3ccccc3n3c(CCC(=O)O)nnc23)cc1	17
CCN1CCN(c2cc(=O)n(C3CCCCC3)c(=O)[nH]2)CC1	-2
CN1C(=O)C(C)(C)c2cc(S(=O)(=O)NCc3ccc(Cl)cc3)ccc21	16
CCn1c(CCCNC(=O)c2cccs2)nc2ccccc21	6
O=C1CCn2nc(-c3ccc(Cl)cc3)cc2N1	4
Cc1cc2c(cc1S(=O)(=O)Nc1cccc(C)c1C)n(C)c(=O)c(=O)n2C	8
Cn1c(C(=O)N2CCN(Cc3ccccc3)CC2)cc2c(=O)n(C)c3ccccc3c21	25
O=c1c2nnn(Cc3ccccc3)c2ncn1C/C=C/c1ccccc1	10
Cc1cc(NC(=O)CSc2nnc(-c3c[nH]c4ccccc34)n2C)no1	5

Reprinted from the part before: 7 entries, then new ones.
SMILES	Hedgehog cleavage
CN1C(=O)C(C)(C)c2cc(S(=O)(=O)NCc3ccc(Cl)cc3)ccc21	16
CCn1c(CCCNC(=O)c2cccs2)nc2ccccc21	6
O=C1CCn2nc(-c3ccc(Cl)cc3)cc2N1	4
Cc1cc2c(cc1S(=O)(=O)Nc1cccc(C)c1C)n(C)c(=O)c(=O)n2C	8
Cn1c(C(=O)N2CCN(Cc3ccccc3)CC2)cc2c(=O)n(C)c3ccccc3c21	25
O=c1c2nnn(Cc3ccccc3)c2ncn1C/C=C/c1ccccc1	10
Cc1cc(NC(=O)CSc2nnc(-c3c[nH]c4ccccc34)n2C)no1	5
Cc1cc(OCC(=O)N[C@@H](Cc2c[nH]c3ccccc23)C(=O)O)c2c(C)c(C)c(=O)oc2c1	5
COc1ccccc1C1N(c2cc(Cl)ccc2OC)C(=O)C2CCCN21 (stereo unspecified)	9
Cc1cccc(NC(=O)Nc2cccc(C#N)c2)n1	0
C[C@@H](C(=O)NCC1CCCO1)N1C(=O)N2CCc3c([nH]c4ccccc34)[C@@]2(C)C1=O (stereo partly specified)	-5
CCCCc1cc(=O)oc2cc(C)cc(OCC(=O)N3CCC(C(=O)O)(c4ccccc4)CC3)c12	9
Cc1ccnc2c(N3C(=O)C4C5C=CC(C5)C4(C)C3=O)cccc12 (stereo unspecified)	11
CC(=O)OCC1=C(C(=O)O)N2C(=O)[C@@H](NC(=O)Cc3ccccc3)[C@H]2SC1	2
O=C(COc1ccc2c(c1)oc(=O)c1ccccc12)NC(Cc1ccc(Cl)cc1)C(=O)O (stereo unspecified)	7
Cn1cc(S(=O)(=O)N2CCc3ccccc3C2)c(=O)n(C)c1=O	5
CCCN1CCN(C(=O)c2noc3c2COc2ccc(C)cc2-3)CC1	7
CCOC(=O)C1CCCCN1S(=O)(=O)c1cc2c(cc1C)NC(=O)CO2 (stereo unspecified)	9
CCc1cccc(C)c1NC(=S)NCc1ccc2c(c1)cc(C)n2C	4
O=C1c2ccccc2C(Nc2ccc(Cl)cn2)N1c1ccccn1 (stereo unspecified)	10
COc1ccc(N2CCN(Cc3nc4c(c(=O)n(C)c(=O)n4C)n3Cc3ccccc3C)CC2)cc1	5
CCCn1c(CN2CCCCC2CC)nc2c1c(=O)n(C)c(=O)n2C (stereo unspecified)	5
CCN(CC)S(=O)(=O)c1ccc(C(=O)NCc2ccc3[nH]c4c(c3c2)CCCC4)cc1	2
COc1ccc(N2C(=O)C3CCCN3C2c2cccc(C)c2)cc1 (stereo unspecified)	4
COC(=O)C1CC(O)C(O)C(O)C1 (stereo unspecified)	7
CCOC(=O)N1CCC(N2CC34C=CC(O3)C(C(=O)Nc3ccc(OCC)cc3)C4C2=O)CC1 (stereo unspecified)	10
C1=CC2C3C=CC(C3)C2C1 (stereo unspecified)	5
Nc1nc2n(n1)C(c1ccccc1Cl)CC(c1ccc(F)cc1)N2 (stereo unspecified)	10
COc1ccc(NC2c3ccccc3C(=O)N2c2cccnc2)cc1Cl (stereo unspecified)	-12
COC(=O)C1CCN(c2cc(=O)n(-c3ccc(OC)cc3)c(=O)[nH]2)CC1	2
CCOc1ccc(C2c3c(oc4ccccc4c3=O)C(=O)N2CCCN2CCOCC2)cc1OCC (stereo unspecified)	25
CC(C)CCNC(=O)Cn1cc2c(n1)CCCCC2	7
CCCc1cc(=O)oc2cc(C)cc(OC(C)C(=O)NCC3CCC(C(=O)O)CC3)c12 (stereo unspecified)	3
CC(C)(C)c1ccc(-c2nnc3sc(-c4ccccn4)nn23)cc1	17
O=C(NCCc1csc(-c2ccccc2)n1)c1c(F)cccc1F	4
COc1cccc(CNS(=O)(=O)c2cc3c(cc2C)n(C)c(=O)c(=O)n3C)c1	7
CC(c1ccccc1)C(CC(=O)O)C(=O)NC1CCCCC1 (stereo unspecified)	5
Cn1c(Cn2c(=O)sc3ccccc32)nnc1SCC(=O)Nc1ccccc1F	2
CCOC(=O)COc1cccc2c(=O)n(CC(=O)N3CCCc4ccccc43)ccc12	11
O=C1c2ccccc2C(Nc2ccc(S(=O)(=O)N3CCOCC3)cc2)N1Cc1ccco1 (stereo unspecified)	19
COc1ccc(OC)c(-n2c(SCC(=O)NCc3ccco3)nnc2-c2c[nH]c3ccccc23)c1	4
Cc1nc2sccn2c(=O)c1S(=O)(=O)Nc1ccc(N2CCOCC2)c(Cl)c1	-2
Cc1nc2sccn2c(=O)c1S(=O)(=O)Nc1cccc(Cl)c1C	2
Cc1ccc2c(c1)N(C(=O)CCC(=O)NCc1cccc(F)c1)CCO2	5
COc1ccc(CNC(=O)C2CCN(c3nnc(N4CCCC4=O)s3)CC2)cc1	5
COc1cc(O)c2c(=O)c3c(O)ccc(O)c3oc2c1	7
O=CC(=O)c1ccccc1	2
CN1C(=O)C(C)(C)c2cc(S(=O)(=O)NCCc3ccc(Cl)cc3)ccc21	11
CCN1CCN(C(=O)c2cc3c(s2)-c2c(C)cccc2OC3)CC1	21
Cc1ccc(-c2nc(CS(=O)(=O)CC(=O)NCc3cccc(F)c3)c(C)o2)cc1	0
Cc1oc(-c2ccccc2F)nc1CS(=O)(=O)CC(=O)NC1CCCC1	19
Brc1ccc(-c2noc(CCc3ccccc3)n2)o1	6
Cc1ccc(CNC(=O)C2CCN(S(=O)(=O)c3c(C)noc3/C=C/c3ccco3)CC2)cc1	7
CCc1nnc(NC(=O)CSc2nc3c(c(=O)n2CC)SC(C)C3)s1 (stereo unspecified)	2
O=C(Nc1nc2cc3c(cc2s1)OCCO3)c1cccc(N2C(=O)CCC2=O)c1	14
CC1CN(C(=O)CCC(=O)NCCc2ccccc2)c2ccccc2O1 (stereo unspecified)	2
COC(=O)C1C(=O)c2c([nH]c(C(=O)OC3CCCCC3)c2C)CC1C (stereo unspecified)	25
CCOc1ccccc1C1CC(c2ccccc2)Nc2nc(N)nn21 (stereo unspecified)	15
CCOC(=O)N1CCC(N2C(=O)c3ccccc3C2Nc2ccc3c(C)cc(=O)oc3c2)CC1 (stereo unspecified)	5
CCn1c(=O)c2cc(C(=O)NCc3cccs3)sc2c2ccccc21	2
COc1cccc(C2c3[nH]c4ccccc4c3C[C@H]3C(=O)N(c4ccccc4C(=O)N4CCCC4C(=O)O)C(=O)N23)c1 (stereo partly specified)	-4
Cc1ccc(NC(=O)c2cc(S(=O)(=O)N3CCOCC3)cn2C)cc1Cl	5
O=C(c1cc2c(s1)-c1ccccc1OC2)N1CCN(c2ccccn2)CC1	11
COc1cccc(-c2c(NC(=O)c3ccco3)oc3ccccc3c2=O)c1	2
O=C1C2CCCN2C(c2ccccc2)N1c1cccc(Cl)c1 (stereo unspecified)	20
Cc1ccc2c(c1)N(C(=O)CCC(=O)NC1CCN(Cc3ccccc3)CC1)CC(C)O2 (stereo unspecified)	4
COC(=O)C1CCN(C(=O)C2CCN(C(=O)[C@@H](NS(=O)(=O)c3ccc(C)cc3)C(C)C)CC2)CC1	3

Other records.
SMILES	Hedgehog cleavage
COc1ccc(C2c3sc(=O)[nH]c3SC3C(=O)N(c4ccccc4)C(=O)C32)cc1 (stereo unspecified)	4
CCOC(=O)c1c(NC(=O)CC)sc2c1CCN(Cc1ccccc1)C2	6
CCOC(=O)N1CCN(C(=O)Cn2ncc3c2-c2ccccc2OC3)CC1	3
CCc1cc(=O)oc2cc(OCC(=O)NCC3CCC(C(=O)O)CC3)ccc12 (stereo unspecified)	7
COc1ccc(CCNC(=O)C(=O)NCC2OCCN2S(=O)(=O)c2ccc(F)cc2)cc1OC (stereo unspecified)	-4
COc1ccc(-c2nc(CCNC(=O)c3ccc(Br)o3)cs2)cc1	9
CSCC[C@H](N)C(=O)N1CCC(C(=O)N[C@@H](C)C(=O)NCc2ccc(F)cc2)CC1	3
CCCC(=O)NCCCc1nc2ccccc2n1C	0
CCOC(=O)N1CCN(CC(=O)c2ccc3c(c2)CCN3C(C)=O)CC1	7
CC(C)C(=O)Nc1sc2c(c1C(N)=O)CCN(Cc1ccccc1)C2	19
O=C(CCC(=O)N1CCOc2ccccc21)NC1CCN(Cc2ccccc2)CC1	2
CC(=O)Nc1ccc(NS(=O)(=O)c2cn(C)c(=O)n(C)c2=O)cc1	3
CCOc1ccc(-c2cc(CCCC(=O)NCc3ccco3)no2)cc1	4
O=C(CSc1cn(CCNC(=O)c2cccs2)c2ccccc12)NC1CCCC1	-2
CCCN(CCC)S(=O)(=O)c1ccc(C(=O)NCc2ccc3c(c2)OCO3)cc1	10
COc1cc(O)c(CCO)c2c1C(=O)C[C@@H](C)O2	11
O=C(CCCCCNC(=O)N1CCn2c1nc1ccccc12)N[C@@H](C(=O)O)c1ccccc1	7
CCCc1nc(SCc2ccccn2)c2c(=O)n(C)c(=O)n(C)c2n1	11
O=C(COc1ccc2c(c1)oc(=O)c1ccccc12)N[C@@H](Cc1c[nH]c2ccccc12)C(=O)O	7
CCC(C)Nc1ccc(NC(C)CC)cc1 (stereo unspecified)	4

Among those listed so far, 6 have an aryl thioether with sulfur outside any ring.
SMILES	Hedgehog cleavage
Cc1cc(NC(=O)CSc2nnc(-c3c[nH]c4ccccc34)n2C)no1	5
Cn1c(Cn2c(=O)sc3ccccc32)nnc1SCC(=O)Nc1ccccc1F	2
COc1ccc(OC)c(-n2c(SCC(=O)NCc3ccco3)nnc2-c2c[nH]c3ccccc23)c1	4
CCc1nnc(NC(=O)CSc2nc3c(c(=O)n2CC)SC(C)C3)s1 (stereo unspecified)	2
O=C(CSc1cn(CCNC(=O)c2cccs2)c2ccccc12)NC1CCCC1	-2
CCCc1nc(SCc2ccccn2)c2c(=O)n(C)c(=O)n(C)c2n1	11

(further entries)
SMILES	Hedgehog cleavage
Cc1ccc(-c2nc3cccnc3s2)cc1NS(=O)(=O)c1ccc2c(c1)CCCC2	7
CCN1CCN(C(=O)Cn2ncc3c2-c2ccccc2OC3)CC1	6
Cc1ccc(NS(=O)(=O)c2cc3[nH]c(=O)c(=O)[nH]c3cc2C)c(C)c1	21
CC(=O)N1CCN(c2ccc(NCc3ccc(C)s3)cc2)CC1	4
O=C(NCCN1C(=O)C2C3C=CC(C3)C2C1=O)Nc1ccccc1O (stereo unspecified)	9
Cc1cc2cc(CNC(=O)c3cccc([N+](=O)[O-])c3)ccc2[nH]1	4
O=C(Nc1ccc(-c2nc3cccnc3s2)cc1)c1ccc(Br)o1	3
Cc1cc2c(cc1S(=O)(=O)CCC(=O)N(C)C1CCCCC1)OCC(=O)N2	5
CC(C)[C@H](NC(=O)N1CCn2c1nc1ccccc12)C(=O)N[C@H](Cc1ccccc1)C(=O)O	5
O=C1OC[C@H](Cc2ccc3c(c2)OCO3)/C1=C\c1ccc2c(c1)OCO2	3
N#Cc1ccc(N2CCN(C(=O)c3cccc(F)c3)CC2)c(F)c1	7
Cc1ccnc(SCCn2c(N3CCN(c4ccccc4)CC3)nc3c2c(=O)[nH]c(=O)n3C)n1	3
COc1cccc(C2c3c(oc4ccccc4c3=O)C(=O)N2CCCN2CCOCC2)c1 (stereo unspecified)	-9
Cc1ccc(S(=O)(=O)N2CCC(C(=O)N3CCCC3C(=O)N[C@@H](CC(C)C)C(=O)NCC(N)=O)CC2)cc1 (stereo partly specified)	5
Cc1cc(C)cc(NC(=O)CCN2C(=O)c3ccccc3S2(=O)=O)c1	-2
CCOc1ccc(-n2c(Cc3cc(=O)[nH]c(=O)[nH]3)nnc2SCC(=O)NC2CCCC2)cc1	8
COc1ccc(N2CCN(Cc3nc4c(c(=O)n(C)c(=O)n4C)n3CCc3ccccc3)CC2)cc1	-1
COc1ccc(-n2c(SC)nnc2-c2c[nH]c3ccccc23)cc1	0
COc1ccc(-c2nc(CSCC(=O)N3CCN(C4CCCCC4)CC3)c(C)o2)cc1OC	23
Cc1ccccc1-c1nc(CS(=O)(=O)CC(=O)NCCN2CCOCC2)c(C)o1	10

Bioassay records: PubChem, Broad Institute

This is a subset; count on the stated rates, not on these rows.
